TRPV1 potentiator: potentiators of human vanilloid receptor 1 (TRPV1); potentiation, % at 8.33 µM; TRPV1-expressing cells, Fluo-8 calcium influx, capsaicin EC20 potentiation; host cell line not named in the record; control for the full effect not named in the record; 0.02% of 320,000 active; Q8NER1; AID 540277; active means potentiation above 80%; inconclusive means 30% to 80%; inactive means below 30%; note: 0% is about no effect
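Fluo-8 calcium influx in TRPV1-expressing cells, kinetic read (ex 480/em 520 nm). Compound added and read 3 min for agonist activity, followed by capsaicin at EC20 final and 2 min further read for enhancement.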
Sfp inh: blocks B. subtilis Sfp PPTase activity; AID 1490; Potency, µM, for inactives: max response, negative = inhibition, actives largely listed as inhibitors; 3.5% of 310,000 active; Biochemical Sfp PPTase activity, qHTS; Q9F4F7; active = well fitted inhibition curve with a large enough effect; inconclusive = small, poorly fitted or top-dose-only effect, or another doubt; inactive = no such curve, though single readings can be large or run the other way;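 note: the enzyme is Sfp with the accession as filed and its product quenches rhodamine fluorescence; potency is the fitted concentration of half-maximal effect; 0% = enzyme reaction without inhibitor and -100% = no enzyme wells; top concentration of the series not given in the record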
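Step 1, compound plus 15 nM Sfp-PPTase, 15 min, room temperature. Step 2, add rhodamine-CoA (5 uM) and BHQ-2-YbbR (12.5 uM). Step 3, read 525/598 nm fluorescence at 0 and 30 min.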
ClpP mod: qHTS Assay for Activators of ClpP | Potency, µM (series often up to 57.5 µM), inactives show top-dose activity change, negative = active | 1.9% of 340,000 active | AID 651965, 2013 | purified B. subtilis ClpP, FRET peptide cleavage, 20 min; active = well fitted falling curve with a large enough effect; inconclusive = small, poorly fitted or top-dose-only effect; inactive = no such curve, though single readings can be large or run the other way; note: potency is the fitted concentration of half-maximal effect; the source files actives as falling curves though it sought activators and does not explain the sign; nearly all actives have a fitted effect of over 65% in size; many hits overshoot -100%
Target sequence (P80244 whole entry, looked up): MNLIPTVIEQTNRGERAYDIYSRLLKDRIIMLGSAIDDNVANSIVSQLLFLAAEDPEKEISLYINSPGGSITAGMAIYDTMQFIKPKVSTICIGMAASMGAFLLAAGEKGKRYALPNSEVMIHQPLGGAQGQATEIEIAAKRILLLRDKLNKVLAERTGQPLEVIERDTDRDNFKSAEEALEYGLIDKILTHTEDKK
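ClpP 10 microg/mL final, pH 8 Tris/KCl buffer with BSA, glycerol, Tween-20; compound pinned in; FRET-FV substrate; RT 20 min; Ex320/Em430; ΔFRET vs ADEP 5.8 microM, DMSO, no enzyme.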
Menin MLL FP FL: displaces fluorescein MLL peptide from human menin | FP activity change, % at 61.4 µM | Fluorescence polarization, fluorescein-MLL peptide displacement from menin | 290,000 tested, under 10 active | AID 1766; inconclusive = falling polarisation curve, or a change in total fluorescence; inactive = total fluorescence flat and polarisation flat or rising; no compound was filed as active; the % refers to the polarisation; negative = inhibition;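 note: % of control where 0% means no effect; inhibitors lower the polarisation; unlabelled MLL peptide was the positive control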
D2 potentiator: positive allosteric modulators of human D2 dopamine receptor; DiscoveRx D2 beta-arrestin cells, luminescence, 90 min; 100% = 57 uM dopamine signal; potentiation, % (concentration not given with the values); P14416; 0.23% of 360,000 active; active = potentiation of 50% or more; inconclusive = 30% to 50%; inactive = 30% or less;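 note: compound concentration not given in the record; tested on top of an EC20 dose of dopamine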
Target sequence (P14416 whole entry, looked up): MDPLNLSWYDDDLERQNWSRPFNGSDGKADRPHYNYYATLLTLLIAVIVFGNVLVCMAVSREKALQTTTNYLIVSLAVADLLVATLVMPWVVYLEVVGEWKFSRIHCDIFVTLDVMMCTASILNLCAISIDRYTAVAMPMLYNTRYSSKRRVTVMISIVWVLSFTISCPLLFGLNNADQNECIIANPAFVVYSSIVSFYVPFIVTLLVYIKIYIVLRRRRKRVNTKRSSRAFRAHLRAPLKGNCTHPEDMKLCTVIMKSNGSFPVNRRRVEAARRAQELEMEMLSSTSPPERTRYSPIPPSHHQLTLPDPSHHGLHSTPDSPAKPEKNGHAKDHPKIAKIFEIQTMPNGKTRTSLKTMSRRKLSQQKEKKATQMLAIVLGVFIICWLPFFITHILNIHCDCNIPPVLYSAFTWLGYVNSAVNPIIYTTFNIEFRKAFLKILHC
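D2 cells co-treated with compound plus 50 nM dopamine (EC20) for 90 min at 37 deg C to detect potentiation. Beta-arrestin recruitment was read as enzyme-fragment luminescence after 1 h at ambient temperature. Full response was set by 57 uM dopamine.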
gsp antagonist: gsp mutant antagonism. Potency, µM (series often up to 76.9 µM), without a hit: at the top dose activity change, negative = inhibition, usual class: inhibitors. gsp-mutant cells, cAMP HTRF, 30 min; control for the full effect not named in the record. AID 624288. 0.4% of 340,000 active; active = falling curve of any shape with a large fitted effect; inconclusive = falling curve, mostly with a smaller effect; inactive = flat or rising curve; cell line not stated here;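 note: intracellular cAMP measured with PDE inhibitor Ro 20-1724 present during compound exposure; potency is the fitted concentration of half-maximal effect; % is set by controls: 0 for no effect and ±100 for the full control effect; nearly all actives have a fitted effect of over 65% in size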
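Cells, 2000/well, grown 16–24 h in DMEM 10% FBS with 0.5 mg/ml G418, then compounds plus […] (300 uM addition stock), 30 min at 37C. cAMP read by HTRF (cAMP-d2 and anti-cAMP antibody-K in lysis buffer) after 30 min RT.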
gsp ag: agonists of gsp mutant (McCune-Albright syndrome). Potency, µM (doses to about 76.9 µM), for the others: top-dose activation (cAMP increase), hits mostly activators. 0.13% of 340,000 active. gsp mutant cells, cAMP HTRF, 30 min; control for the full effect not named in the record; active = well fitted activation curve with a large enough effect; inconclusive = small, poorly fitted or top-dose-only effect, or another doubt; inactive = no such curve, though single readings can be large or run the other way; cell line not stated here;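 note: phosphodiesterase inhibitor Ro 20-1724 added with compounds to block cAMP breakdown; potency is the fitted concentration of half-maximal effect; nearly all actives have a fitted effect of over 60% in size; about a fifth of the inactives were tested at one dose only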
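Cells stably selected in G418 were plated at 2000/well, grown 16-24 hr, then given compounds in DMSO with the PDE inhibitor […] (300 uM solution added) for 30 min at 37C; cAMP was read by HTRF.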
Numbers without * were called inactive; u = inconclusive; x = not tested or not shown; [ ] = remark or other dose.

SMILES	TRPV1 potentiator	Sfp inh	ClpP mod	Menin MLL FP FL	D2 potentiator	gsp antagonist	gsp ag
CN(C(=S)NC(=O)c1ccc(Br)o1)c1ccccc1	0	-29%	-3.0%	5.6	9	-16%	2%
CN(C)S(=O)(=O)c1ccc(NC(=O)CN2CCCCCC2)cc1	-5	9%	x	-2.4	-4	4%	1%
O=C(Cc1ccccc1)NC(NC(=O)Cc1ccccc1)c1cccc([N+](=O)[O-])c1	-1	-6%	-0.1%	10.0	-9	-6%	-3%
C/C(=N\NS(=O)(=O)c1ccccc1)c1ccc2c(c1)OCCO2	2	-1%	-2.7%	3.4	-12	0%	2%
Cc1ccc(NC2=C(Cl)C(=O)OC2OC(=O)c2ccco2)cc1 (stereo unspecified)	9	3%	0.5%	-0.4	3	11%	u
C/C(=N\OCc1nc2ccccc2c(=O)n1/N=C/c1cc([N+](=O)[O-])ccc1O)c1ccccc1	-5	2%	-0.8%	4.3	-10	u	22%
Cn1nnnc1SCC(=O)C(C)(C)C	19	-1%	x	-1.8	-8	-1%	5%[15.4 µM]
O=C(O)C1CC(=O)N(Cc2ccc3c(c2)OCO3)C1 (stereo unspecified)	-6	14%	-0.8%	1.0	2	9%	1%
CC(C)CCNC(=O)C1CCN(C(=O)N(C)C)CC1	5	7%	-0.3%	-1.3	-6	-2%	-58%[inhibitor]
Cc1ccc(Nc2nc(C(=O)N3CCC(C(=O)NCc4ccccc4)CC3)cs2)cc1	6	14%	x	3.9	-3	-36%	20%[15.4 µM]
COCc1cc(C)nc(OCC(=O)N/N=C\c2cc(C)n(-c3cccc(C(F)(F)F)c3)c2C)c1C#N	-15	3%	26%	-0.6	-12	1%	-4%
O=C(N/N=C/c1ccc([N+](=O)[O-])o1)c1cn(-c2ccccc2)nc1-c1ccccc1	8	22%	x	-1.5	17	-13%	-2%[15.4 µM]
COc1ccc(NC(=O)Nc2ccc3nc(C)c(C)nc3c2)cc1	15	23%	1.4%	0.2	-6	-5%	13%
CCCCCCNc1cc2n(c(=O)n1)CCc1cc(OC)c(OC)cc1-2	2	3%	16µM*	9.6	-5	16%	u
Cn1cnc(S(=O)(=O)N2CCN(c3cccc(Cl)c3)CC2)c1	4	-9%	-1.2%	-6.6	-12	9%	5%
CCCCNC(=O)c1cc2cc(OC)ccc2[nH]1	x	1%	4.0%	4.7	-22	3%	-11%
O=C(CSc1nncn1-c1ccccc1)Nc1ccccc1F	7	8%	x	u	-8	-4%	-3%[15.4 µM]
CCN(CC)C(=O)CCCC(=O)N(CC)CC	-3	13%	x	-5.7	-9	11%	-3%[15.4 µM]
S=C(Nc1ccc2c(c1)OCO2)N1CCN(Cc2ccco2)CC1	6	-8%	-2.7%	-7.6	-15	0%	10%
O=c1[nH]c(CSc2nnc(-c3ccco3)n2-c2ccccc2)nc2sc3c(c12)CCC3	-6	14%	x	3.9	x	x	x

A run of entries from the list above:
SMILES	TRPV1 potentiator	Sfp inh	ClpP mod	Menin MLL FP FL	D2 potentiator	gsp antagonist	gsp ag
CN(C(=S)NC(=O)c1ccc(Br)o1)c1ccccc1	0	-29%	-3.0%	5.6	9	-16%	2%
CN(C)S(=O)(=O)c1ccc(NC(=O)CN2CCCCCC2)cc1	-5	9%	x	-2.4	-4	4%	1%

Complete entries from above.
Shown for COCc1cc(C)nc(OCC(=O)N/N=C\c2cc(C)n(-c3cccc(C(F)(F)F)c3)c2C)c1C#N : TRPV1 potentiator: -15; Sfp inh: 3%; ClpP mod: 26%; Menin MLL FP FL: -0.6; D2 potentiator: -12; gsp antagonist: 1%; gsp ag: -4%
Shown for CN(C(=S)NC(=O)c1ccc(Br)o1)c1ccccc1 : TRPV1 potentiator: 0; Sfp inh: -29%; ClpP mod: -3.0%; Menin MLL FP FL: 5.6; D2 potentiator: 9; gsp antagonist: -16%; gsp ag: 2%

Going on with the list:
SMILES	TRPV1 potentiator	Sfp inh	ClpP mod	Menin MLL FP FL	D2 potentiator	gsp antagonist	gsp ag
COC(=O)[C@@]1(Cc2ccc(F)cc2)[C@H]2c3cc(C(=O)N(C)C)n(CCc4c[nH]c5ccc(OC)cc45)c3C[C@H]2CN1C(=O)c1ccccc1	x	1%	-2.7%	-1.4	x	x	x
CC(C)C[C@H]1CNC(=S)N1CC1CCN(CCC23CC4CC(CC(C4)C2)C3)CC1	x	x	0.6%	x	-19	3%	x
c1ccc(C(c2nnnn2C2CCCC2)N2CCN(c3ccccc3)CC2)cc1 (stereo unspecified)	-1	2%	-1.1%	1.8	-16	-5%	2%
Cn1c(=O)n(C)c2cc(S(=O)(=O)Nc3ccccc3)ccc21	-10	11%	x	-6.2	1	-12%	u
O=[N+]([O-])/C(N=Nc1ccccc1)=N\Nc1ccccc1	2	17%	x	-0.1	-2	-14%	13%[15.4 µM]
Cc1ccc(-n2c(N)c(C#N)c(-c3ccc(Cl)cc3)c(C#N)c2=O)cc1	-7	23%	-28%	1.7	-33	-1%	22%
COc1ccccc1N1CC(C(=O)Nc2ccc3c(c2)OCO3)CC1=O (stereo unspecified)	-6	8%	x	2.1	-6	8%	-4%[15.4 µM]
Cc1cc(C)cc(NC(=O)Cc2ccc(S(=O)(=O)N3CCCC3)s2)c1	-2	x	-6.2%	x	-19	-3%	-6%
COc1cc(/C=C/C(=O)N2CCN(c3n[nH]c(=O)[nH]c3=O)CC2)cc(OC)c1OC	18	17%	-0.9%	7.5	-6	4%	-26%[15.4 µM]
C=C(C)c1sc(-c2ccc(Cl)cc2)nc1C	x	x	u	x	-5	6%	x
Cc1c(C(=O)N2CCCC2)sc(NC(=O)c2ccc(Cl)cc2)c1C#N	-7	30%	0.7%	2.9	-9	-26%	-40%[inhibitor]
CC12CCC(c3c1nc1ccccc1[n+]3[O-])C2(C)C (stereo unspecified)	-5	8%	0.7%	-0.9	-6	16%	-4%[15.4 µM]
CCc1ccc(OCC(=O)OC(C)C(=O)NC2CC2)cc1 (stereo unspecified)	-6	6%	0.2%	x	-19	-7%	19%
COC(=O)CS(=O)(=O)c1cccc2cccnc12	7	13%	0.1%	0.1	-1	3%	14%
CC(C)(C)c1ccc(C(=O)C2CCCN(C(=O)CCn3cncn3)C2)cc1 (stereo unspecified)	-9	6%	-0.8%	x	-12	-17%	21%
N#CC1C(=O)NC(c2ccccc2)=CC1c1ccccc1 (stereo unspecified)	x	x	x	x	-32	7%	u
CC(=O)Nc1ccc(C=NNC(=O)C2CC2)cc1	x	x	x	x	3	-4%	44%
CCC(C(=O)OC)n1c(-c2ccccc2)nc2ccccc2c1=O (stereo unspecified)	-8	-11%	-1.3%	-2.5	-8	-1%	-15%
Cc1ccccc1CS(=O)(=O)Cc1ccc(C(=O)NC2CCCC2)o1	-1	13%	-9.3%	0.7	-8	6%	u
C#CCN(C[C@H]1[C@H](OC(=O)NCc2ccccc2F)[C@H](OC(=O)NCc2ccccc2F)C[C@H]2C(=O)N(c3ccccc3)C(=O)[C@@H]12)S(=O)(=O)c1ccc(C)cc1	x	x	-1.0%	x	-1	x	14%
CC(C)CC(=O)NC1(C(F)(F)F)C(=O)Nc2c1c(=O)n(C)c(=O)n2C (stereo unspecified)	3	13%	-4.7%	1.1	-1	1%	-51%[inhibitor]
COC(=O)c1sc(NC(=O)c2ccco2)c(C#N)c1C	11	40µM*	u	2.0	-11	4%	u
c1ccc(Nc2scc(-c3ccccc3)[n+]2Cc2ccco2)cc1	1	20µM*	-0.4%	7.3	-9	-26%	-32%[inhibitor]
NC(=O)C1CCN(Cc2nc3c(Br)cc(Br)cc3c(=O)[nH]2)CC1	-12	14%	-4.8%	-0.9	-4	16%	19%[15.4 µM]
COc1ccc(NC(=O)C2CCCN2C(=O)NCc2ccccc2)cc1 (stereo unspecified)	1	23%	x	-0.2	-1	10%	-15%[15.4 µM]
COc1ccc(C2C(=O)N(C3CCCCC3)CC(=O)N2CC2COc3ccccc3O2)cc1 (stereo unspecified)	-1	8%	2.4%	-1.2	-19	3%	1%
Fc1cccc2sc(Nc3nc4c(F)cccc4s3)nc12	17	22%	u	5.5	-4	16%	16%
Cc1c(C(=O)NCC2CCCO2)oc2ccc(S(=O)(=O)N3CCCCC3)cc12 (stereo unspecified)	-37	5%	-0.3%	1.9	-4	-1%	-31%[inhibitor]
CCSc1ncnc2c1oc1ccccc12	15	7%	-1.5%	0.8	-12	0%	27%
O=C(OCCN1CCCCC1)c1cccc(F)c1	3	3%	x	1.5	-11	-6%	-4%
COc1cc(OC)cc(C(=O)Nc2ccc3c(c2)COC3=O)c1	-11	19%	-2.4%	9.6	-6	-4%	-20%
COc1ccc(OC(=O)CCN2C(=O)C3C4C=CC(C4)C3C2=O)cc1 (stereo unspecified)	5	11%	x	-4.2	-5	-5%	5%[15.4 µM]
COc1cc2c3c(c1)c(C1=NC(=S)NC1=O)c(O)n3C(C)(C)C=C2C	-2	3%	-0.1%	-0.5	-6	10%	1%
Cc1ccc(C(=O)Cn2c(-c3ccccc3)noc2=O)cc1	6	11%	0.7%	0.4	2	3%	3%
CCOC(=O)C1=C(O)/C(=C/c2ccc(-c3ccccc3C(=O)O)o2)SC1=Nc1ccc(C)cc1	-11	5%	-3.6%	5.9	-18	-9%	u
Cc1cc(NC(=O)CN2CCN(S(=O)(=O)c3ccc4ccccc4c3)CC2)no1	-11	-2%	-1.1%	2.6	3	-3%	6%
COC(=O)c1ccccc1NC(=O)C1CCN(C(=O)N2CCOc3ccccc32)CC1	10	-9%	-12%	-1.8	-1	-17%	-43%[inhibitor]
Cc1nc(C)c(C(=O)C2=C(O)C(=O)N(CCN(C)C)C2c2cccs2)s1 (stereo unspecified)	-4	-11%	0.8%	-1.7	2	-2%	u
CCOc1cc(S(=O)(=O)N(CC)CC)ccc1F	u	8%	-1.7%	-5.0	-9	17%	-31%[inhibitor]
COc1cc(F)ccc1S(=O)(=O)N1CCN(Cc2ccccc2)CC1	1	0%	0.0%	-0.2	-5	-3%	1%[15.4 µM]
NC(=O)c1ccccc1N/C=C/C(=O)c1cccs1	u	1%	-16%	0.9	-4	6%	1%
O=C1CCCc2nc(N3CCN(C(=O)c4ccco4)CC3)ncc21	3	7%	-4.3%	x	7	-8%	u
CCCC1S/C(=N/N=C/c2ccc(OC)cc2)N(Cc2ccccc2)C1=O (stereo unspecified)	18	13%	0.7%	14	-22	4%	12%
CCO[C@@H]1OC(C(=O)NC2CC2)=C[C@H](c2ccc(Br)cc2)[C@H]1CCCO	-33	3%	-0.1%	3.9	7	-13%	x

Compound activity deposited in PubChem by National Center for Advancing Translational Sciences (NCATS).
